From PubChem
Rce1 inh – yeast Ras-converting enzyme inhibition; Q03530; yeast membranes, quenched prenylated peptide cleavage fluorescence; calls only; 0.27% of 290,000 active; AID 2563;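 active = fall in fluorescence gain of 50% or more versus controls, with final raw signal at or below 3038400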;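 note: plate controls were neutral control wells for no effect and wells lacking membranes for full effect; tested at 10 µM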
Target sequence (Q03530 whole entry, looked up): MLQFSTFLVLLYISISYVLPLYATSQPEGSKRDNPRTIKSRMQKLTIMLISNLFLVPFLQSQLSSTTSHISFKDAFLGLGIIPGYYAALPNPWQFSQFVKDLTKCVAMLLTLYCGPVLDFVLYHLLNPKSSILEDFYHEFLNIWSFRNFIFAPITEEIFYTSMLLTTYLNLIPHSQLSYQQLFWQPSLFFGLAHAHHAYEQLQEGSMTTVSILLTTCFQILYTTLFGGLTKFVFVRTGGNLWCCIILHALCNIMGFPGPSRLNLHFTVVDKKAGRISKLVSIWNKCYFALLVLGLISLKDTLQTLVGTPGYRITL
HIV Env fusion – HIV envelope-mediated fusion inhibition | HeLa-JRFL Env/CEM21 cell fusion, luciferase | inhibition, % at 12.3 µM | 1.1% of 360,000 active | AID 651610;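 active = mean replicate inhibition score of at least 50 and every replicate individually at or above 50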;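 note: 0% = plate neutral controls and 100% = maraviroc near 300 nM; one replicate is shown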
CSC inhib – blocks cancer stem cells; cancer stem cell-like cells viability, luminescence; inhibition, % at 7.5 µM; 1.1% of 300,000 active;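 active = mean at 75% or more and at least half the replicates too; tested in HMLE shEcad cells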;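 note: 0% = median of negative and 100% = median of positive control wells; the first replicate is given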
UUG fidelity – modulators of start codon recognition fidelity in yeast; S. cerevisiae UUG-firefly luciferase reporter, luminescence/redox ratio; activity score, % at 18.7 µM; 0.13% of 350,000 active;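 active = replicate mean at a twofold rise or more, about +100% in these data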;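 note: firefly luciferase made from a UUG start codon reports start codon fidelity; reporter light over untreated wells divided by growth signal over untreated wells; some hits fall short of that in this replicate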
eIF4H FP inh – inhibitors of RNA binding by human eIF4H; 0.94% of 290,000 active; Q15056; eIF4H fluorescence polarization binding assay; inhibition, % at 35 µM;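 active = 50% or more with normal probe brightness, or confirmed in later tests; about a fifth of its hits are not listed in these tables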;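 note: calls also rest on retests at 20 µM and on dose response follow-up; 0% = protein and probe with vehicle and 100% = probe without protein; strong numbers were not always called active; many hits fall short of the cut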
PABP FP inh – blocks human PABP binding to poly(A) RNA; inhibition, % at 35 µM; fluorescence polarization; 1% of 290,000 active; P11940; AID 2014;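 active = 50% or more with normal probe brightness, or confirmed in later tests; about a fifth of its hits are not listed in these tables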;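 note: calls also rest on retests at 20 µM and on dose response follow-up; controls were probe without protein and protein plus probe with vehicle; some compounds called inactive have numbers as strong as hits; many hits fall short of the cut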
MT1-MMP act inh – blocks activation of human MT1-MMP; HT1080 RFP-PRO-GFP cells, GFP/RFP ratio fluorescence, overnight; percent of plate control window, DMSO zero; GFP/RFP ratio change, % at 20 µM; 0.061% of 360,000 active; AID 651647;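 active = GFP/RFP ratio change of at least 30% with cell ATP level not reduced by more than half and red fluorescence within 50% of control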; note: strong numbers were not always called active
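Assay system: HT1080 cells carrying an RFP-PRO-GFP reporter | Dosing: Single dose of 20 µM compound, 1% DMSO final | Incubation: Cells overnight before dosing, compound overnight, 37 °C, 5% CO2 | Evaluation: GFP/RFP fluorescence ratio | Control set: DMSO and RFP-L50D-GFP cell wells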
MT1-MMP act inh RFP – also measured in MT1-MMP act inh; calls as there; RFP signal change, %; measured here: RFP expression control read;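 0 = vehicle wells; hits needed this value within 50% of zero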
* hit, by the source's call.

What do the screens show for `CC1CN(C(=O)c2ccc(CNS(=O)(=O)c3cccc(C(F)(F)F)c3)cc2)CC(C)O1` (stereo unspecified)?
HIV Env fusion: -21; CSC inhib: 7; UUG fidelity: -6; eIF4H FP inh: 1; PABP FP inh: 5; MT1-MMP act inh: 8; MT1-MMP act inh RFP: -5

What do the screens show for `CN1CCN(CC(=O)Nc2ccc(OC(F)(F)F)cc2)CC1`?
Rce1 inh: inactive; HIV Env fusion: 22; CSC inhib: 5; UUG fidelity: -10; eIF4H FP inh: 1; PABP FP inh: 6; MT1-MMP act inh: -1; MT1-MMP act inh RFP: 2

How did CC(=O)N(Cc1cc(=O)[nH]c2ccccc12)c1ccc(C)cc1C do in these assays?
Rce1 inh: inactive; HIV Env fusion: 0; CSC inhib: -11; eIF4H FP inh: -17; PABP FP inh: -5; MT1-MMP act inh: -1; MT1-MMP act inh RFP: 2

What do the screens show for `CC(C)(C)NC(=S)N/N=C/c1cc(Br)c(O)c(Br)c1`?
Rce1 inh: inactive; HIV Env fusion: -13; CSC inhib: 7; eIF4H FP inh: 2; PABP FP inh: -2; MT1-MMP act inh: 7; MT1-MMP act inh RFP: -11

What do the screens show for `NC(=O)CN1C(=O)C(O)(CC(=O)c2ccccc2O)c2ccccc21` (stereo unspecified)?
Rce1 inh: inactive; HIV Env fusion: -9; CSC inhib: -5; UUG fidelity: -10; eIF4H FP inh: 3; PABP FP inh: -8; MT1-MMP act inh: 1; MT1-MMP act inh RFP: 7

What do the screens show for `CCN(CC)C(=O)C1=C(C)N(Cc2ccccc2)C(=O)C(CC(=O)NC(c2ccccc2)c2ccccc2)C1` (stereo unspecified)?
HIV Env fusion: -23; UUG fidelity: 22; MT1-MMP act inh: 2; MT1-MMP act inh RFP: -3

What do the screens show for `O=C(NCCc1ccccn1)c1cc2ccccc2o1`?
Rce1 inh: inactive; HIV Env fusion: -38; CSC inhib: -8; UUG fidelity: -24; eIF4H FP inh: -16; PABP FP inh: 1; MT1-MMP act inh: -1; MT1-MMP act inh RFP: -1

How did CCCC1O[C@@H]2CC3C4CCC5=CC(=O)C=C[C@]5(C)C4C(OC(C)=O)C[C@]3(C)[C@]2(C(=O)COC(C)=O)O1 (stereo partly specified) do in these assays?
Rce1 inh: inactive; HIV Env fusion: 27; CSC inhib: 6; UUG fidelity: 3; eIF4H FP inh: -2; PABP FP inh: 0; MT1-MMP act inh: -27; MT1-MMP act inh RFP: -16

Results for COCCNC(=O)CSc1ccccc1C(=O)O ?
HIV Env fusion: 5; CSC inhib: -12; eIF4H FP inh: -5; PABP FP inh: 9; MT1-MMP act inh: 1; MT1-MMP act inh RFP: 3

Results for Cc1c(C(=O)NCC2CCCO2)oc2c(Cl)cccc12 (stereo unspecified) ?
Rce1 inh: inactive; CSC inhib: -15; UUG fidelity: -18; MT1-MMP act inh: 2; MT1-MMP act inh RFP: 4

Results for O=C(NC1CCCC1)C1CCC(CNS(=O)(=O)c2ccccc2)CC1 (stereo unspecified) ?
Rce1 inh: inactive; HIV Env fusion: 8; CSC inhib: -15; UUG fidelity: 2; eIF4H FP inh: -17; PABP FP inh: -2; MT1-MMP act inh: -1; MT1-MMP act inh RFP: -2

What do the screens show for `Cc1nnc(SCC(=O)N/N=C/c2cc(Cl)c(O)c(Cl)c2)s1`?
Rce1 inh: inactive; HIV Env fusion: 18; CSC inhib: -5; UUG fidelity: -11; eIF4H FP inh: -10; PABP FP inh: 1; MT1-MMP act inh: -1; MT1-MMP act inh RFP: 5

The list goes on, overlapping the part above by 2 compounds.
Results for O=C(NC1CCCC1)C1CCC(CNS(=O)(=O)c2ccccc2)CC1 (stereo unspecified) ?
Rce1 inh: inactive; HIV Env fusion: 8; CSC inhib: -15; UUG fidelity: 2; eIF4H FP inh: -17; PABP FP inh: -2; MT1-MMP act inh: -1; MT1-MMP act inh RFP: -2

What do the screens show for `Cc1nnc(SCC(=O)N/N=C/c2cc(Cl)c(O)c(Cl)c2)s1`?
Rce1 inh: inactive; HIV Env fusion: 18; CSC inhib: -5; UUG fidelity: -11; eIF4H FP inh: -10; PABP FP inh: 1; MT1-MMP act inh: -1; MT1-MMP act inh RFP: 5

What do the screens show for `O=C(O)C1=C[C@@H](C2CC2)C[C@@H](OCCCCO)O1`?
Rce1 inh: inactive; HIV Env fusion: 1; CSC inhib: -13; UUG fidelity: -6; MT1-MMP act inh: -6; MT1-MMP act inh RFP: 1

What do the screens show for `CCC(=O)Nc1nn(C)c2nc3c(C)cccc3cc12`?
Rce1 inh: inactive; CSC inhib: -6; UUG fidelity: -19; eIF4H FP inh: -2; PABP FP inh: -4; MT1-MMP act inh: 3; MT1-MMP act inh RFP: -1

Results for COc1cccc(NC(=O)N2CCC(n3nnc4ccccc43)CC2)c1 ?
Rce1 inh: inactive; HIV Env fusion: 15; CSC inhib: 3; UUG fidelity: -20; eIF4H FP inh: -2; PABP FP inh: 0; MT1-MMP act inh: 0; MT1-MMP act inh RFP: -1

How did CCc1cccc(CC)c1NC(=O)NC1CCCCC1 do in these assays?
Rce1 inh: inactive; HIV Env fusion: -56; CSC inhib: -13; UUG fidelity: -6; eIF4H FP inh: -7; PABP FP inh: -11; MT1-MMP act inh: 4; MT1-MMP act inh RFP: 4

How did O=C(COC(=O)c1n[nH]c2ccccc12)Nc1ccccc1Br do in these assays?
HIV Env fusion: 4; CSC inhib: -14; UUG fidelity: -18; MT1-MMP act inh: 3; MT1-MMP act inh RFP: 0

Results for Cc1ccc(/C=N/NC(=O)c2cccs2)cc1[N+](=O)[O-] ?
Rce1 inh: inactive; HIV Env fusion: -309; CSC inhib: 8; UUG fidelity: -4; eIF4H FP inh: -9; PABP FP inh: -3; MT1-MMP act inh: 3; MT1-MMP act inh RFP: 0

How did COc1ccc(C(=O)C2CCCN(C(=O)c3ccc(F)cc3)C2)cc1OC (stereo unspecified) do in these assays?
Rce1 inh: inactive; HIV Env fusion: 4; CSC inhib: -5; UUG fidelity: -25; eIF4H FP inh: -6; PABP FP inh: 0; MT1-MMP act inh: -1; MT1-MMP act inh RFP: -5

How did CC(C)Cc1nnc(NC(=O)CCC(=O)NC2CCCCCCC2)s1 do in these assays?
Rce1 inh: inactive; HIV Env fusion: 12; CSC inhib: -14; UUG fidelity: -17; eIF4H FP inh: 0; PABP FP inh: 0; MT1-MMP act inh: 1; MT1-MMP act inh RFP: 0

Results for CCN(CC)C(=O)C(=O)c1cccn1-c1cccc(OC)c1C#N ?
Rce1 inh: inactive; HIV Env fusion: 1; CSC inhib: -11; UUG fidelity: -16; eIF4H FP inh: -3; PABP FP inh: 12; MT1-MMP act inh: 4; MT1-MMP act inh RFP: 5

Results for O=C1CCCC2=C1C(c1ccc(OS(=O)(=O)c3ccc(Cl)cc3)cc1)C1=C(CCCC1=O)O2 ?
Rce1 inh: inactive; HIV Env fusion: -73; CSC inhib: -3; UUG fidelity: -15; eIF4H FP inh: 2; PABP FP inh: 2; MT1-MMP act inh: -12; MT1-MMP act inh RFP: -13

What do the screens show for `Cc1noc(C)c1CSc1nnc2n(-c3ccccc3)c(=O)c3ccccc3n12`?
Rce1 inh: inactive; HIV Env fusion: -1; CSC inhib: 0; UUG fidelity: -9; MT1-MMP act inh: -1; MT1-MMP act inh RFP: 0

What do the screens show for `COc1ccc(C(=O)CSc2ncnc3nc[nH]c23)cc1`?
Rce1 inh: inactive; HIV Env fusion: 19; CSC inhib: 3; UUG fidelity: -30; eIF4H FP inh: -16; PABP FP inh: -3; MT1-MMP act inh: 2; MT1-MMP act inh RFP: -2

Results for Cc1ccc(CC(=O)NCCCc2ccccc2)cc1 ?
Rce1 inh: inactive; HIV Env fusion: -11; CSC inhib: -10; UUG fidelity: 11; eIF4H FP inh: 10; PABP FP inh: -3; MT1-MMP act inh: 3; MT1-MMP act inh RFP: 1

How did Cc1nn(-c2ccccc2)c2c1C(c1ccc(Cl)cc1)N(c1ccccc1)C(=O)N2 (stereo unspecified) do in these assays?
Rce1 inh: inactive; HIV Env fusion: -2; CSC inhib: 2; eIF4H FP inh: -2; PABP FP inh: -6; MT1-MMP act inh: -7; MT1-MMP act inh RFP: -9

How did CCCCn1c(N)c(N(CCOC)C(=O)COC(=O)c2ccccc2OCC)c(=O)[nH]c1=O do in these assays?
Rce1 inh: inactive; HIV Env fusion: 0; CSC inhib: -2; UUG fidelity: -9; eIF4H FP inh: -7; PABP FP inh: -12; MT1-MMP act inh: 2; MT1-MMP act inh RFP: 1

What do the screens show for `CC(=O)N/C(=C\c1ccc(F)cc1)C(=O)NC(Cc1ccccc1)C(=O)O` (stereo unspecified)?
Rce1 inh: inactive; HIV Env fusion: -17; CSC inhib: -16; UUG fidelity: -18; eIF4H FP inh: 5; PABP FP inh: -8; MT1-MMP act inh: -3; MT1-MMP act inh RFP: 1

Results for Cc1ccc(C2NC(=O)NC(O)(C(F)(F)F)C2C(=O)c2cccs2)o1 (stereo unspecified) ?
Rce1 inh: inactive; HIV Env fusion: 3; CSC inhib: -10; UUG fidelity: -10; eIF4H FP inh: -2; PABP FP inh: 3; MT1-MMP act inh: 5; MT1-MMP act inh RFP: 10

Results for Cc1ccc(C23CCC(=O)N2C(C(=O)O)CS3)c(C)c1 (stereo unspecified) ?
Rce1 inh: inactive; HIV Env fusion: -3; CSC inhib: -11; eIF4H FP inh: -14; PABP FP inh: 3; MT1-MMP act inh: 1; MT1-MMP act inh RFP: 5

How did O=[N+]([O-])c1ccc(S(=O)(=O)NCC(c2ccco2)N2CCc3ccccc3C2)cc1 (stereo unspecified) do in these assays?
Rce1 inh: inactive; HIV Env fusion: -7; CSC inhib: 0; UUG fidelity: 1; MT1-MMP act inh: 2; MT1-MMP act inh RFP: -1

Results for COC(=O)c1cc(CSc2nnc(NC3CCCCC3)s2)oc1C ?
Rce1 inh: inactive; HIV Env fusion: 26; CSC inhib: -12; UUG fidelity: -3; eIF4H FP inh: 4; PABP FP inh: 18; MT1-MMP act inh: 7; MT1-MMP act inh RFP: -5

What do the screens show for `CC(C)(C)C(=O)Nc1nnc(COc2ccc(Cl)cc2)s1`?
Rce1 inh: inactive; HIV Env fusion: 12; CSC inhib: 6; eIF4H FP inh: -12; PABP FP inh: -8; MT1-MMP act inh: 4; MT1-MMP act inh RFP: 1

Results for COC(=O)CCC(=O)Nc1sc(C)c(C)c1C(N)=O ?
Rce1 inh: inactive; CSC inhib: -13; UUG fidelity: -17; eIF4H FP inh: 8; PABP FP inh: 5; MT1-MMP act inh: 6; MT1-MMP act inh RFP: 6

What do the screens show for `COc1cccc(OC)c1C(=O)OCC(=O)NCC(C)C`?
Rce1 inh: inactive; HIV Env fusion: -25; CSC inhib: -11; eIF4H FP inh: -4; PABP FP inh: -3; MT1-MMP act inh: -1; MT1-MMP act inh RFP: 3

What do the screens show for `O=C(/C=C/N1CCOCC1)c1ccc(-c2ccccc2)cc1`?
Rce1 inh: inactive; CSC inhib: 12; UUG fidelity: -14; eIF4H FP inh: -5; PABP FP inh: -8; MT1-MMP act inh: 5; MT1-MMP act inh RFP: -3

What do the screens show for `O=C1c2cccnc2C(=O)N1Cc1ccc2c(c1)OCO2`?
Rce1 inh: inactive; CSC inhib: -3; UUG fidelity: -12; eIF4H FP inh: -12; PABP FP inh: -4; MT1-MMP act inh: 2; MT1-MMP act inh RFP: 5

An excerpt from above in order of count of non-hydrogen atoms, largest number first:
How did CCCCn1c(N)c(N(CCOC)C(=O)COC(=O)c2ccccc2OCC)c(=O)[nH]c1=O do in these assays?
Rce1 inh: inactive; HIV Env fusion: 0; CSC inhib: -2; UUG fidelity: -9; eIF4H FP inh: -7; PABP FP inh: -12; MT1-MMP act inh: 2; MT1-MMP act inh RFP: 1

What do the screens show for `O=C(/C=C/N1CCOCC1)c1ccc(-c2ccccc2)cc1`?
Rce1 inh: inactive; CSC inhib: 12; UUG fidelity: -14; eIF4H FP inh: -5; PABP FP inh: -8; MT1-MMP act inh: 5; MT1-MMP act inh RFP: -3

Results for COC(=O)CCC(=O)Nc1sc(C)c(C)c1C(N)=O ?
Rce1 inh: inactive; CSC inhib: -13; UUG fidelity: -17; eIF4H FP inh: 8; PABP FP inh: 5; MT1-MMP act inh: 6; MT1-MMP act inh RFP: 6

Some of the compounds tested. The share of hits here may be higher or lower than overall.
